Screening data as filed in PubChem.
TRPML1 ag: activates the human TRPML1 channel | TRPML1-expressing cells, Ca2+ dye fluorescence, FDSS; host cell line not named in the record; reference of the full effect not given here | 0.12% of 410,000 active | Q9GZU1 | activation, % (test concentration not listed); in the data active = activation above about 50%; inconclusive = about 30% to 50%; inactive = below about 30%; note: 0% is about no effect; the text of the record puts the active cut at 80%
Target sequence (Q9GZU1 whole entry, looked up): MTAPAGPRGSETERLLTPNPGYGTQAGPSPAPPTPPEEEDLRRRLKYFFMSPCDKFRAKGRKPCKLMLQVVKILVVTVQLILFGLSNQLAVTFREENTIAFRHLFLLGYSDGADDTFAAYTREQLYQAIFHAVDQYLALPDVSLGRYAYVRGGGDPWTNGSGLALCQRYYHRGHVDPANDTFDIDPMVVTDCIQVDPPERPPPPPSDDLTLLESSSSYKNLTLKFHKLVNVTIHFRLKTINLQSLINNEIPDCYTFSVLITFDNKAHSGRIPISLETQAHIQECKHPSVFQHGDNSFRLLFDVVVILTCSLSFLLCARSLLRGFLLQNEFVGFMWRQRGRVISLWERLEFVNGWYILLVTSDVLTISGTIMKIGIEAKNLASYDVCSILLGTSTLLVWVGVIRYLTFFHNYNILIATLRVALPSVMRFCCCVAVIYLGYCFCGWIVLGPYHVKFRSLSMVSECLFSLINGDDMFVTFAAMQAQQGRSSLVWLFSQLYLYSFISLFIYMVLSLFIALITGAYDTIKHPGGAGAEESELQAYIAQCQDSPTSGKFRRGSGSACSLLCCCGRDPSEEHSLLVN
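Cells: TRPML1-DL, 1X Tet inducer, ~16 h at 37 degrees C/5% CO2. Dye: ABD Ca8 no-wash + quencher, 45-90 min RT. Read: 10 s baseline, compound add, 110 s agonist phase; 54-4 EC80 (4uM final), 110 s antagonist phase.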
Menin-MLL FL inh: menin-MLL binding inhibition, fluorescein peptide; Fluorescence polarization, fluorescein-MLL peptide displacement from menin; FP activity change, % at 61.4 µM; 290,000 tested, under 10 active; AID 1766; inconclusive = falling polarisation curve, or a change in total fluorescence; inactive = total fluorescence flat and polarisation flat or rising; no compound was filed as active; the % refers to the polarisation; negative = inhibition;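 note: % of control where 0% means no effect; inhibitors lower the polarisation; unlabelled MLL peptide was the positive control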
gsp antag: antagonists of gsp mutant (McCune-Albright syndrome) | Potency, µM (doses to about 76.9 µM), inactives show at the top dose activity change, negative = inhibition, hits mostly inhibitors | 0.4% of 340,000 active | gsp-mutant cells, cAMP HTRF, 30 min; control for the full effect not named in the record | AID 624288; active = falling curve of any shape with a large fitted effect; inconclusive = falling curve, mostly with a smaller effect; inactive = flat or rising curve; cell line not stated here;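 note: intracellular cAMP measured with PDE inhibitor Ro 20-1724 present during compound exposure; potency is the fitted concentration of half-maximal effect; % is set by controls: 0 for no effect and ±100 for the full control effect; nearly all actives have a fitted effect of over 65% in size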
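G418-selected cells were plated in DMEM/10% FBS for 16-24 h at 37C, then treated with compounds plus the PDE inhibitor […] (300 uM solution added) for 30 min at 37C. Intracellular cAMP was measured by HTRF after 30 min lysis at room temperature.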
TRPML1 blocker: blocks the human TRPML1 channel | Q9GZU1 | 0.02% of 390,000 active | AID 624415 | activity change, negative = inhibition, % (test concentration not listed) | TRPML1-inducible cells, Ca2+ dye fluorescence, FDSS; active compounds read low; inhibition of EC80 agonist-evoked calcium signal; in the data active means activity change below about -50%; inconclusive means about -30% to -50%; inactive means above about -30%;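 note: stimulus is agonist 54-4 at its EC80 concentration; % is set by controls: 0 for no effect and ±100 for the full control effect; compound concentration not given in the record; the text of the record puts the active cut at -80%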
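Calcium fluorescence in TRPML1-DL cells induced overnight with Tet: a 110 s read after compound pin addition, then a 110 s antagonist read after challenge with 54-4 at 4 uM final (EC80).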
gsp agonist: gsp mutant agonism | gsp mutant cells, cAMP HTRF, 30 min; control for the full effect not named in the record | Potency, µM (highest dose often 76.9 µM), for the others: at the highest dose activation (cAMP increase), hits mostly activators | 0.13% of 340,000 active | AID 624287; active = well fitted activation curve with a large enough effect; inconclusive = small, poorly fitted or top-dose-only effect, or another doubt; inactive = no such curve, though single readings can be large or run the other way; cell line not stated here;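 note: phosphodiesterase inhibitor Ro 20-1724 added with compounds to block cAMP breakdown; potency is the fitted concentration of half-maximal effect; nearly all actives have a fitted effect of over 60% in size; about a fifth of the inactives were tested at one dose only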
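Cells stably selected in G418 were plated at 2000/well, grown 16-24 hr, then given compounds in DMSO with the PDE inhibitor […] (300 uM solution added) for 30 min at 37C; cAMP was read by HTRF.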
ClpP mod: qHTS Assay for Activators of ClpP | 1.9% of 340,000 active | purified B. subtilis ClpP, FRET peptide cleavage, 20 min | ATP-dependent Clp protease proteolytic subunit (Bacillus subtilis (strain 168)), P80244 | AID 651965, 2013 | Potency, µM (top dose mostly 57.5 µM), for the others: at the highest dose activity change, negative = active; active = well fitted falling curve with a large enough effect; inconclusive = small, poorly fitted or top-dose-only effect; inactive = no such curve, though single readings can be large or run the other way; note: potency is the fitted concentration of half-maximal effect; the source files actives as falling curves though it sought activators and does not explain the sign; nearly all actives have a fitted effect of over 65% in size; many hits overshoot -100%
Target sequence (P80244 whole entry, looked up): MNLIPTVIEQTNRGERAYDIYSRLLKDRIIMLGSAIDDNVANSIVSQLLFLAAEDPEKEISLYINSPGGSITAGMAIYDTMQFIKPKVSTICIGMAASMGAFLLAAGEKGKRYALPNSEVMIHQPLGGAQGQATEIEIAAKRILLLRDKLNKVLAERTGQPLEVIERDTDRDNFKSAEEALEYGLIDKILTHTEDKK
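ClpP 10 microg/mL final, pH 8 Tris/KCl buffer with BSA, glycerol, Tween-20; compound pinned in; FRET-FV substrate; RT 20 min; Ex320/Em430; ΔFRET vs ADEP 5.8 microM, DMSO, no enzyme.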
Active calls of the source: *; ? = inconclusive; nt = no result given; [ ] = another dose, or the depositor's remark.

item	mol	TRPML1 ag	Menin-MLL FL inh	gsp antag	TRPML1 blocker	gsp agonist	ClpP mod
1	NNC(=O)CNC(=O)c1cccc(Br)c1	1.4	-1.5	10.1%	21.7	6.0%	-1.2%
2	CCN(C(=O)c1nn(-c2ccc(OC)c(Cl)c2)c(=O)c2c1c1ccccc1n2C)c1cc(OC)ccc1OC	-0.7	nt	nt	-6.5	nt	-1.8%
3	COCCNC(=O)CSc1nccn1Cc1ccc2c(c1)OCO2	-0.3	-3.2	-4.7%	-2.9	10.1%[15.4 µM]	-2.4%
4	COc1ccc(S(=O)(=O)N2CCC(n3c(C)nc4cccnc43)CC2)cc1Cl	-0.8	nt	nt	1.5	nt	-0.5%
5	O=C(CCCN1C(=O)/C(=C/c2ccccc2)SC1=S)Nc1ccc(O)cc1	0.9	-1.1	-13.4%	6.8	-12.5%	0.3%
6	COc1cc2c(C(=O)O)c(C)n(CC(C)C)c2c2ccccc12	2.7	0.0	0.0%	15.0	0.0%	35.5µM*
7	COc1cccc(NC(=O)CN(c2cccc(F)c2)S(C)(=O)=O)c1	0.0	-0.5	1.4%	2.2	-6.9%	-0.8%
8	COc1ccc(/C=C(\C#N)C(=O)ONC2=NCCCCC2)cc1	1.0	?	-4.5%	36.2	-12.2%	-1.9%
9	Cc1c(O)ccc(C(=O)CN2C(=O)c3ccccc3C2=O)c1O	-0.6	5.7	-25.4%	4.2	20.7%	0.3%
10	NC(=O)c1ccc(NS(=O)(=O)c2ccc(Br)s2)cc1	-0.6	nt	-6.2%	5.5	1.3%	2.3%
11	CCN(CC)C(=O)C(Cc1ccccc1)N1C(=O)c2ccccc2C1=O (centres undefined)	1.3	-1.4	2.1%[15.4 µM]	11.5	12.2%	-2.4%
12	O=C(Oc1cccc2ccccc12)C1CC1	-0.5	?	13.9%	0.9	-22.5%	0.4%
13	CCCn1c(NCc2cccc(OC)c2O)nc2ccccc21	0.8	-0.3	-5.2%	-2.3	4.8%	-1.9%
14	COc1cccc(CN2CCCN(CC(=O)Nc3ccc4c(c3)OCCO4)S2(=O)=O)c1	0.8	nt	nt	29.8	nt	2.0%
15	O=C(NC(Cc1c[nH]c2ccccc12)C(=O)O)/C(=C/c1ccc2c(c1)OCO2)NC(=O)c1ccccc1 (centres undefined)	-0.4	-0.8	0.0%	6.0	-23.8%	nt
16	O=C(NC1CCCCC1)C(c1ccncc1)N(C(=O)c1csnn1)c1ccccc1 (centres undefined)	-0.1	-1.3	4.7%	-6.6	-31.4%[inhibitor]	nt
17	O=C(NNC(=O)c1cc2cc(OC(F)(F)F)ccc2[nH]1)c1cccc(C(F)(F)F)c1	-0.1	-1.4	0.7%	-29.0	8.5%	nt
18	Cc1ccc(CCNC(=O)c2cnc3c(C)cccn3c2=O)cc1	1.5	nt	nt	-5.0	nt	4.8%
19	COc1cnn(-c2ccc([N+](=O)[O-])cc2)c(=O)c1Cl	0.3	nt	5.3%	-4.4	-9.1%[15.4 µM]	-0.6%
20	COc1ccc(OC)c(NCc2nnc(-c3ccccc3)o2)c1	-0.1	-4.0	-3.2%	-8.4	-39.2%[inhibitor]	nt
21	Cc1ccc(Cl)cc1N1CCN(C(=O)Cn2cnc3onc(-c4ccc(F)cc4)c3c2=O)CC1	1.1	nt	nt	-19.2	nt	-0.9%
22	CCc1ccc(CNC(=O)c2cc3cc4ccc(OC)cc4nc3o2)cc1	-0.6	nt	nt	20.6	nt	3.8%
23	COc1ccc(C(=O)NC(=S)Nc2ccc3c(c2)Cc2ccccc2-3)cc1	-0.5	1.7	0.6%	26.7	15.9%	-0.9%
24	Cc1cc(NS(=O)(=O)c2ccc(NC(=O)COc3ccc(C#N)cc3)cc2)nc(C)n1	0.7	nt	-4.3%	5.4	20.5%[15.4 µM]	?
25	CCCCC(=O)N(C)c1c(CC)nc2c(OCCC3CCCCC3)cccn12	-0.7	nt	nt	-3.0	nt	-0.2%

(next part)
item	mol	TRPML1 ag	Menin-MLL FL inh	gsp antag	TRPML1 blocker	gsp agonist	ClpP mod
26	CC12CCC=CC1C(c1ccc(C(F)(F)F)cc1)N(Cc1ccccc1)C2=O (centres undefined)	1.8	0.1	nt	4.5	nt	nt
27	O=C(c1ccc2c(c1)N(Cc1ccccc1)C(=O)c1ccccc1S2(=O)=O)N1CCc2ccccc21	0.1	nt	nt	-0.6	nt	-0.5%
28	CCOc1[nH]n(-c2ccccc2)c(=O)c1C=Nc1ccc(Cl)cc1	2.2	-0.6	0.7%	50.5	6.4%	0.8%
29	Cc1ccc(NNC(=O)c2ccno2)c(C)c1	0.9	-0.5	10.9%	-1.5	24.7%	nt
30	COc1ccc(CCNC(=O)c2nn(-c3ccc(C)cc3)c(=O)c3c2c2ccccc2n3C)cc1OC	1.1	nt	nt	-7.1	nt	?
31	CCCCCN(C(=O)CCC(=O)OCCOc1ccccc1)c1c(N)n(CCCC)c(=O)[nH]c1=O	-1.3	nt	-14.4%	-12.9	-6.4%	-0.4%
32	CCC(CC)=NNc1ccc(S(N)(=O)=O)cc1[N+](=O)[O-]	1.6	-5.3	-9.1%	23.6	1.4%	-1.1%
33	CC1CCCCC1NS(=O)(=O)c1ccc(S(=O)(=O)N2CCN(CCC#N)CC2)cc1 (centres undefined)	0.0	2.5	8.4%	-2.8	-18.6%	1.9%
34	C=C1CCC(O)C2(C)CCC3C(C)C(=O)OC3C12O (centres undefined)	0.9	2.1	6.3%	26.0	-15.9%	nt
35	CCCCn1c(N)c(N(CC(C)C)C(=O)COC(=O)Cc2cccc(OC)c2)c(=O)[nH]c1=O	-0.3	nt	7.0%	7.7	-23.8%	1.9%
36	CC(=O)Nc1ccc(Nc2cc(C)nc3ccccc23)cc1	0.2	nt	-0.7%	-11.0	-10.6%[15.4 µM]	nt
37	O=c1[nH]cc(CCc2ccccc2)c(=O)[nH]1	-0.8	nt	nt	9.6	-1.0%	-1.1%
38	Cc1ccc(NC(=O)c2ccc(CNS(=O)(=O)c3ccc4c(c3)C(C)(C)C(=O)N4C)cc2)cc1C	0.1	nt	nt	-9.8	nt	-5.3%
39	O=C(NC12CC3CC(CC(C3)C1)C2)OCCNC1CCCCC1	-0.1	-2.2	7.2%	35.2	3.6%[15.4 µM]	nt
40	CN1CCN(C(=O)c2cn(-c3ccccc3)nc2-c2cccs2)CC1	-0.5	1.1	5.1%	26.0	-21.4%	-7.4%
41	CC1CN(C(=O)c2ccc(COc3ccccc3Br)o2)CC(C)O1 (centres undefined)	-1.0	-1.5	4.3%	-8.7	22.2%	nt
42	Cc1ccc(OCc2n[nH]c(=S)n2C2CCCCC2)cc1	0.5	3.3	-1.4%	-13.8	-22.2%	0.1%
43	CSc1ncnc2c1ncn2CC(=O)C1CCC2C3CCC4=CC(=O)CCC4(C)C3CCC12C (centres undefined)	0.4	nt	31.6µM*	33.3	9.6%	0.9%
44	CCc1ccc(NC(=O)CSc2nnc(COc3ccc4c(c3)CCCC4)o2)cc1	-1.2	3.3	9.5%	-6.7	6.7%	0.5%
45	CNc1ccccc1-n1ccc(-c2ccccc2)n1	-0.4	1.8	-24.6%	17.7	-16.2%	-6.9%
46	O=C(CSc1n[nH]c(-c2ccco2)n1)Nc1ccccc1Cl	2.1	8.7	-0.1%	-4.1	-18.9%	nt
47	COc1cc(/C=C(/C#N)C(=O)c2c(C)[nH]c3ccccc23)ccc1OCC#N	0.7	3.1	-0.6%	40.2	2.7%	-2.5%
48	CCc1nn2c(=O)cc(COc3cccc(NC(=O)c4ccco4)c3)nc2s1	0.3	nt	-2.1%	-10.0	6.3%	-1.1%
49	O=C(Nc1ccc2[nH]ncc2c1)c1ccccc1Br	0.7	1.1	1.4%	-11.8	-1.3%[15.4 µM]	-0.5%
50	CC1CCN(C(=O)CN2CCSc3ccc(S(=O)(=O)N(C)C)cc32)CC1	1.4	nt	nt	-5.6	nt	4.2%

New compounds follow
item	mol	TRPML1 ag	Menin-MLL FL inh	gsp antag	TRPML1 blocker	gsp agonist	ClpP mod
51	O=C(NNC(=S)Nc1ccc(F)c(Cl)c1)c1ccccc1Br	0.8	-2.8	-11.9%	19.1	-30.7%[inhibitor]	nt
52	Cc1ccccc1NC1=NC(=S)N(c2ccccc2)C12CCOC(C)(C)C2 (centres undefined)	0.0	-4.1	-4.0%	14.4	11.5%	1.2%
53	CS(=O)(=O)c1ccc(-c2nn[nH]n2)cc1	0.0	2.5	16.8%	0.1	-2.4%	0.9%
54	CCC(C)NC(=O)CSc1ncnc2sccc12 (centres undefined)	0.8	-2.0	13.7%	-5.9	3.7%	-0.7%
55	COc1c2ccoc2nc2c(OC)c(OC[C@@H](O)C(C)(C)O)ccc12	-0.5	nt	-2.3%	3.8	nt	3.9%
56	Cc1nc2cc(C(=O)OCC(=O)NC3CCS(=O)(=O)C3)ccc2n1-c1ccccc1 (centres undefined)	1.0	3.6	4.3%	-8.9	-35.1%[inhibitor]	-4.4%
57	Cc1cccc(C)c1NC(=O)CN(C)CC(=O)Nc1ccc(F)c(Cl)c1	0.0	-1.5	-11.4%	-23.7	1.2%[15.4 µM]	0.8%
58	CC(=O)N1CCCC1c1nc2ccccc2n1Cc1cccc(Cl)c1 (centres undefined)	-0.8	nt	nt	4.7	nt	1.2%
59	CCOC(=O)/C=c1\s/c(=C(\C#N)C(N)=O)n(-c2ccccc2)c1=O	0.5	4.8	12.1%	-12.6	1.2%[15.4 µM]	nt
60	C[C@@H]1CN([C@@H](C)CO)C(=O)c2cccc(NS(=O)(=O)c3cccs3)c2O[C@H]1CN(C)Cc1ccc(C(F)(F)F)cc1	0.5	nt	-7.4%	12.3	nt	-3.1%
61	CCOc1ccc(-n2nc3cc(C)c(NC(=O)c4cc(OCC)c(OCC)c(OCC)c4)cc3n2)cc1	-0.1	nt	nt	-0.3	nt	?
62	Cc1[nH]cnc1C(=O)N/N=C/c1ccc([N+](=O)[O-])s1	0.1	1.7	-0.4%	-16.9	22.5%[15.4 µM]	nt
63	COc1cc(-c2nc3c[n+](CC(=O)c4ccccc4)ccc3n2C)cc(OC)c1OC	0.7	2.1	5.3%	-0.8	-3.4%	-0.4%
